# Yeast UUG start = alters start codon recognition fidelity in yeast | S. cerevisiae UUG-firefly luciferase reporter, luminescence/redox ratio | activity score, % at 18.7 µM | actives 0.13% (n = 350,000) | AID 602363;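 active = replicate mean at a twofold rise or more, about +100% in these data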;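 also: firefly luciferase made from a UUG start codon reports start codon fidelity; reporter light over untreated wells divided by growth signal over untreated wells; some hits fall short of that in this replicate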
# HIV Env fusion = inhibitors of HIV Env-mediated cell fusion; HeLa-JRFL Env/CEM21 cell fusion, luciferase; inhibition, % at 12.3 µM; actives 1.1% (n = 360,000);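 active = mean replicate inhibition score of at least 50 and every replicate individually at or above 50; inconclusive = only one of the two criteria met; inactive = mean below 50 and not all replicates reaching 50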;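 also: 0% = plate neutral controls and 100% = maraviroc near 300 nM; one replicate is shown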
# * marks the source's active call; other numbers are inactive results; u = inconclusive; [ ] = dose if it differs, or a comment. Not all compounds are listed (hit frequency here may not be typical).
SMILES,Yeast UUG start,HIV Env fusion
Cc1noc(C)c1NC(=O)Nc1ccc2c(c1)C(=O)N([C@H](C)CO)C[C@@H](C)[C@H](CN(C)Cc1ccncc1)OCCCC[C@@H](C)O2,-2.8,-11.0[16.7 µM]
N#C[C@@H]1[C@H](c2ccc(C#Cc3ccc(F)cc3)cc2)[C@@H](CO)N1C(=O)C1CCC1,-17.7,25.6[16.7 µM]
C[C@@H]1CN([C@H](C)CO)C(=O)c2cc(C#C[C@@H](C)O)cnc2O[C@@H]1CN(C)C(=O)c1ccc(F)cc1,5.9,8.3[16.7 µM]
O=C(C[C@H]1C[C@H]2c3cc(NC(=O)C4CCC4)ccc3O[C@H]2[C@H](CO)O1)NCc1ccc(Cl)cc1,3.4,-27.2[16.7 µM]
COc1ccc(NC(=O)Nc2ccc3c(c2)C(=O)N([C@@H](C)CO)C[C@@H](C)[C@H](CN(C)C(=O)Nc2ccc(OC)cc2)OCCCC[C@@H](C)O3)cc1,-7.2,-16.2[16.7 µM]
COc1ccc(NC(=O)Nc2ccc3c(c2)CC(=O)N([C@H](C)CO)C[C@H](C)[C@H](CN(C)Cc2ccc(Oc4ccccc4)cc2)O3)cc1,2.5,22.1[16.7 µM]
C[C@H]1CCCCO[C@@H](CN(C)C(=O)Nc2ccccc2)[C@@H](C)CN([C@@H](C)CO)C(=O)c2cc(NS(=O)(=O)c3cn(C)cn3)ccc2O1,-0.4,5.3[16.7 µM]
CC(C)NC(=O)N(C)C[C@@H]1Oc2ccc(NC(=O)NC3CCCCC3)cc2CC(=O)N([C@H](C)CO)C[C@@H]1C,0.8,-2.5[16.7 µM]
C[C@H]1CN([C@@H](C)CO)C(=O)c2cc(C3=CCCC3)cnc2O[C@H]1CN(C)Cc1ccccn1,-16.1,-10.0[16.7 µM]
C[C@@H]1CN([C@@H](C)CO)C(=O)c2cc(NS(C)(=O)=O)ccc2O[C@@H](C)CCCCO[C@H]1CN(C)S(=O)(=O)c1ccc(Cl)cc1,11.4,2.2[16.7 µM]
Cc1ccc(S(=O)(=O)N(C)C[C@H]2OCCCC[C@H](C)Oc3ccc(NS(=O)(=O)c4ccc(F)cc4)cc3C(=O)N([C@H](C)CO)C[C@@H]2C)cc1,-4.5,-42.0[16.7 µM]
CNC[C@@H]1OCCCC[C@H](C)Oc2ccc(NC(=O)Nc3ccc4c(c3)OCO4)cc2C(=O)N([C@@H](C)CO)C[C@H]1C,38.5,16.6[16.7 µM]
CC(C)(C)OC(=O)CC[C@@]12N=C(c3ccc(OCCCO)cc3)O[C@@H]1c1ccccc1CN(C(=O)c1ccccc1)C2=O,1.0,14.5[16.7 µM]
C[C@@H]1CN([C@H](C)CO)C(=O)c2cc(NC(=O)c3ccncc3)ccc2O[C@@H](C)CCCCO[C@@H]1CN(C)Cc1ccc(C(F)(F)F)cc1,14.6,7.0[16.7 µM]
C[C@H]1CN([C@@H](C)CO)C(=O)c2cc(C#Cc3ccncc3)cnc2O[C@H]1CN(C)Cc1ccncc1,-13.7,-26.2[16.7 µM]
Cc1noc(C)c1S(=O)(=O)Nc1ccc2c(c1)C(=O)N([C@@H](C)CO)C[C@H](C)[C@H](CN(C)C(=O)CCCN(C)C)OCCCC[C@@H](C)O2,36.8,-7.0[16.7 µM]
C[C@@H]1CN([C@@H](C)CO)S(=O)(=O)c2ccc(C#CCN(C)C)cc2O[C@@H]1CN(C)Cc1ccc2c(c1)OCO2,8.2,1.3[16.7 µM]
C[C@@H]1CN([C@@H](C)CO)C(=O)c2cc(-c3ccccc3F)cnc2O[C@H]1CN(C)Cc1ccccc1,3.6,13.2[16.7 µM]
O=C(C[C@H]1C[C@@H]2c3cc(NC(=O)C4CCOCC4)ccc3O[C@@H]2[C@H](CO)O1)NCc1cccc(F)c1,-1.7,27.3[16.7 µM]
C[C@@H](O)C#Cc1ccc2c(c1)O[C@@H](CN(C)Cc1cncnc1)[C@@H](C)CN([C@@H](C)CO)S2(=O)=O,103.2*,-10.8[16.7 µM]
Cc1ccc(S(=O)(=O)N(C)C[C@H]2OCCCC[C@H](C)Oc3ccc(NC(=O)Nc4ccc(F)cc4)cc3C(=O)N([C@@H](C)CO)C[C@@H]2C)cc1,-13.1,-14.0[16.7 µM]
C[C@@H]1CN([C@H](C)CO)C(=O)c2cccc(NS(=O)(=O)c3ccc(Cl)cc3)c2O[C@@H]1CN(C)Cc1ccc(C(F)(F)F)cc1,-3.3,45.0[16.7 µM]
CN1CCN(C(=O)C[C@@H]2C[C@H]3c4cc(NC(=O)C5CCOCC5)ccc4O[C@H]3[C@H](CO)O2)CC1,4.6,-16.4[16.7 µM]
C[C@@H]1CCCCO[C@@H](CN(C)C(=O)c2ccccc2)[C@@H](C)CN([C@H](C)CO)C(=O)c2cc(NC(=O)CCC(F)(F)F)ccc2O1,10.1,-3.9[16.7 µM]
Cc1ccc(S(=O)(=O)Nc2ccc3c(c2)C(=O)N([C@H](C)CO)C[C@H](C)[C@H](CN(C)C(=O)Cc2ccccc2)OCCCC[C@@H](C)O3)cc1,16.1,-41.6[16.7 µM]

# Part of the list above, field by field:
C[C@@H]1CN([C@H](C)CO)C(=O)c2cc(NC(=O)c3ccncc3)ccc2O[C@@H](C)CCCCO[C@@H]1CN(C)Cc1ccc(C(F)(F)F)cc1
  Yeast UUG start: 14.6 | HIV Env fusion: 7.0[16.7 µM]

C[C@H]1CN([C@@H](C)CO)C(=O)c2cc(C#Cc3ccncc3)cnc2O[C@H]1CN(C)Cc1ccncc1
  Yeast UUG start: -13.7 | HIV Env fusion: -26.2[16.7 µM]

Cc1noc(C)c1S(=O)(=O)Nc1ccc2c(c1)C(=O)N([C@@H](C)CO)C[C@H](C)[C@H](CN(C)C(=O)CCCN(C)C)OCCCC[C@@H](C)O2
  Yeast UUG start: 36.8 | HIV Env fusion: -7.0[16.7 µM]

C[C@@H]1CN([C@@H](C)CO)S(=O)(=O)c2ccc(C#CCN(C)C)cc2O[C@@H]1CN(C)Cc1ccc2c(c1)OCO2
  Yeast UUG start: 8.2 | HIV Env fusion: 1.3[16.7 µM]

# (listing goes on)
SMILES,Yeast UUG start,HIV Env fusion
CCNC(=O)Nc1ccc2c(c1)C(=O)N(C)[C@H]1CC[C@H](CC(=O)NCCN3CCCC3)O[C@H]1CO2,-0.7,1.0[16.7 µM]
COc1cccc(S(=O)(=O)N2C[C@H](O)COC[C@@H]3O[C@H](CC(=O)NCCCN4CCOCC4)CC[C@H]32)c1,-1.6,12.8[16.7 µM]
C[C@H](CO)N1C[C@H](C)[C@H](CN(C)S(=O)(=O)c2cn(C)cn2)Oc2ccc(NS(=O)(=O)c3ccccc3)cc2C1=O,3.2,2.2[16.7 µM]
CCC(=O)Nc1ccc2c(c1)C(=O)N(C)[C@@H]1CC[C@@H](CC(=O)N3CCc4ccccc4C3)O[C@@H]1CO2,-11.0,-13.7[16.7 µM]
O=C(C[C@@H]1C=C[C@H](NC(=O)Nc2ccccc2F)[C@H](CO)O1)NCc1ccc(Cl)cc1,-5.4,21.5[16.7 µM]
COc1ccc(S(=O)(=O)N(C)C[C@H]2OCCCC[C@@H](C)Oc3ccc(NC(=O)CCC(F)(F)F)cc3C(=O)N([C@@H](C)CO)C[C@@H]2C)cc1,7.4,-5.6[16.7 µM]
O=C(C[C@@H]1CC[C@H](NS(=O)(=O)c2cccc(F)c2)[C@H](CO)O1)N1CCCCC1,-8.4,-0.1[16.7 µM]
C[C@@H]1CN([C@@H](C)CO)C(=O)c2cccc(NS(C)(=O)=O)c2O[C@H]1CN(C)Cc1ccncc1,0.0,2.6[16.7 µM]
CCOC(=O)/C=C/c1c(OC)cccc1OC,2.0,12.2[16.7 µM]
C[C@@H]1CN([C@@H](C)CO)S(=O)(=O)c2ccc(-c3cncnc3)cc2O[C@H]1CN(C)C,-1.7,8.8[16.7 µM]
CNC[C@H]1Oc2ccc(N)cc2C(=O)N([C@@H](C)CO)C[C@@H]1C,-11.5,4.4[16.7 µM]
Cc1noc(C)c1S(=O)(=O)N(C)C[C@@H]1OCCCC[C@H](C)Oc2ccc(NC(=O)Nc3cccc4ccccc34)cc2C(=O)N([C@H](C)CO)C[C@H]1C,-10.6,24.7[16.7 µM]
CC(=O)N[C@H]1CC[C@@H](CCNC(=O)C2CC2)O[C@@H]1CO,-20.6,5.2[16.7 µM]
C[C@H]1CN([C@@H](C)CO)S(=O)(=O)c2ccc(C#Cc3ccc(F)cc3)cc2O[C@H]1CN(C)CC1CC1,48.5,11.4[16.7 µM]
C[C@@H]1CN([C@H](C)CO)C(=O)c2cc(NC(=O)C3CCCCC3)ccc2O[C@@H](C)CCCCO[C@@H]1CN(C)Cc1ccc(C(=O)O)cc1,3.7,-13.4[16.7 µM]
O=C(N[C@@H]1CC[C@@H](CCNC(=O)C2CCOCC2)O[C@H]1CO)c1ccncc1,-14.8,-2.4[16.7 µM]
CNC[C@H]1Oc2ccc(NC(=O)C3CCCCC3)cc2C(=O)N([C@H](C)CO)C[C@H]1C,20.5,0.4[16.7 µM]
COc1ccc(CN(C)C[C@@H]2OCCCC[C@@H](C)Oc3ccc(NC(=O)Nc4ccc(C(F)(F)F)cc4)cc3C(=O)N([C@@H](C)CO)C[C@@H]2C)cc1,5.9,u
O=C(CCN1CCCCC1)NCC[C@H]1CC[C@@H](NS(=O)(=O)c2cccc(F)c2)[C@H](CO)O1,-10.2,-10.8[16.7 µM]
O=C(Cc1ccccn1)N[C@H]1CC[C@H](CCNC(=O)c2cc(Cl)cc(Cl)c2)O[C@H]1CO,7.6,-9.8[16.7 µM]
C[C@@H]1CN([C@H](C)CO)C(=O)c2cc(-c3ccccc3)cnc2O[C@@H]1CN(C)C(=O)c1ccccn1,-1.6,-4.9[16.7 µM]
C[C@@H]1CN([C@@H](C)CO)C(=O)c2cc(C#CCN(C)C)cnc2O[C@H]1CN(C)C(=O)c1ccc2c(c1)OCO2,2.4,-1.7[16.7 µM]
C[C@@H]1CN([C@H](C)CO)C(=O)c2cccc(NC(=O)Nc3cccc4ccccc34)c2O[C@@H]1CN(C)S(C)(=O)=O,6.0,20.0[16.7 µM]
COc1ccc(CN(C)C[C@@H]2OCCCC[C@H](C)Oc3ccc(NC(=O)CCC(F)(F)F)cc3C(=O)N([C@H](C)CO)C[C@H]2C)cc1,-8.0,5.7[16.7 µM]
Cn1cnc(S(=O)(=O)N2C[C@@H](O)COC[C@H]3O[C@@H](CC(=O)NCc4cccc(F)c4)CC[C@@H]32)c1,-7.7,-3.1[16.7 µM]

# Carrying on.
SMILES,Yeast UUG start,HIV Env fusion
COc1ccc(-c2cnc3c(c2)C(=O)N([C@@H](C)CO)C[C@@H](C)[C@@H](CN(C)C(=O)CN(C)C)O3)cc1,3.6,3.4[16.7 µM]
CCc1csc(N2[C@@H](C#N)[C@@H](c3ccc(C#Cc4ccc(F)cc4)cc3)[C@@H]2CO)n1,-9.0,33.3[16.7 µM]
C[C@@H]1CN([C@H](C)CO)C(=O)c2cccc(NC(=O)Nc3ccc(F)cc3)c2O[C@@H]1CN(C)C(=O)Nc1ccccc1,14.5,1.1[16.7 µM]
CCC(=O)N[C@H]1C=C[C@H](CC(=O)NCc2cc(F)cc(F)c2)O[C@@H]1CO,-5.4,2.7[16.7 µM]
C[C@@H]1CN([C@H](C)CO)S(=O)(=O)c2ccc(C3=CCCCC3)cc2O[C@@H]1CN(C)S(=O)(=O)c1ccc(F)cc1,-1.4,58.0*[16.7 µM]
C[C@@H]1CCCCO[C@H](CN(C)S(=O)(=O)c2cn(C)cn2)[C@@H](C)CN([C@H](C)CO)C(=O)c2cc(NS(=O)(=O)c3cccs3)ccc2O1,-1.1,4.1[16.7 µM]
Cc1ccc(S(=O)(=O)NCC[C@H]2CC[C@H](NS(=O)(=O)c3ccccc3Cl)[C@@H](CO)O2)cc1,1.2,-1.6[16.7 µM]
COc1ccc(CNC(=O)C[C@H]2CC[C@@H]3[C@@H](COc4ccc(NC(=O)C5CC5)cc4C(=O)N3C)O2)cc1,13.8,0.2[16.7 µM]
CC1(C(=O)NS(=O)(=O)c2cccs2)CCN1C(=O)CC1CCCC1 (configuration not stated),-1.4,22.0
CC(C)NC(=O)Nc1cccc2c1O[C@H](CN(C)S(=O)(=O)c1cccs1)[C@@H](C)CN([C@@H](C)CO)C2=O,2.1,-108.3[16.7 µM]
COc1ccc(NC(=O)N2C[C@@H](O)COC[C@@H]3O[C@H](CC(=O)N4CCCCC4)CC[C@H]32)cc1,-10.9,5.3[16.7 µM]
CCCNC(=O)C[C@H]1C[C@H]2c3cc(NC(=O)NC4CCCC4)ccc3O[C@H]2[C@@H](CO)O1,-10.1,-2.4[16.7 µM]
CC(C)CC#Cc1ccc2c(c1)O[C@H](CN(C)Cc1ccc(F)cc1)[C@H](C)CN([C@H](C)CO)S2(=O)=O,1.1,19.3[16.7 µM]
CCC(=O)Nc1ccc2c(c1)C(=O)N(C)C[C@@H](OC)[C@H](C)CN(CCc1ccccc1)[C@@H](C)CO2,-13.2,-6.2[16.7 µM]
COc1ccc(CN(C)C[C@H]2Oc3ccc(NS(=O)(=O)c4cccs4)cc3C(=O)N([C@@H](C)CO)C[C@@H]2C)cc1,-7.8,-2.6[16.7 µM]
COc1ccc(CN(C)C[C@H]2OCCCC[C@@H](C)Oc3ccc(NC(=O)Nc4ccc(F)cc4)cc3C(=O)N([C@@H](C)CO)C[C@H]2C)cc1,10.5,-28.8[16.7 µM]
C[C@@H]1CN([C@H](C)CO)C(=O)c2cc(NC(=O)Nc3ccc(C(F)(F)F)cc3)ccc2O[C@@H](C)CCCCO[C@H]1CN(C)S(=O)(=O)c1ccc(Cl)cc1,-5.8,3.8[16.7 µM]
O=C(C[C@H]1CC[C@H]2[C@@H](COC[C@H](O)CN2Cc2cccc(Cl)c2)O1)NCC1CCCCC1,-3.0,10.0[16.7 µM]
COc1ccc(NC(=O)N(C)C[C@@H]2Oc3ccc(NC(=O)CCN4CCOCC4)cc3C(=O)N([C@@H](C)CO)C[C@H]2C)cc1,-8.6,-19.9[16.7 µM]

# Bioassay records: PubChem, Broad Institute
